Source: PubChem (Fisher Drug Discovery Resource Center)
NPYLR7 ag: agonists of mosquito NPYLR7 receptor, primary screen, cell-based, Aedes aegypti, calcium fluorescence, mosquito biting behavior; Aedes aegypti neuropeptide Y-like receptor 7 (NPYLR7); HEK293T NPYLR7/Galpha15, GCaMP6s calcium fluorescence; activation, % at 10 µM; hit rate 0.15% among 270,000; AID 1259423, 2018; in the data active = activation above about 40%;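 also: 0% = vehicle and 100% = reference agonist at the receptor; some compounds past the cut are filed as inactive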
NPYLR7 ag max-min: second read-out of NPYLR7 ag, no call of its own (marks repeat the call); activation, %; measured here: Max-Min RFU normalised activation; some inactives read as strong as hits;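 span of the calcium signal over five minutes; 0% = vehicle and 100% = native peptide agonist; compound fluorescence can raise it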
* hit, by the source's call. These rows are one share of the data (hit frequency here may not be typical).

SMILES,NPYLR7 ag,NPYLR7 ag max-min
CC(CCn1cccn1)n1ccnc1-c1cc2ccccc2o1 (stereo not drawn),10.0,2.2
O=S(=O)(c1ccc(F)cc1F)N1CCN(Cc2cccc3cccnc23)CC1,0.3,7.8
C1=CCC(c2cn(Cc3cnc4ccccc4c3)nn2)CC1 (stereo not drawn),-1.5,0.5
O=C(C1=NN(c2ccccc2)C2C(=O)N(c3ccccc3)C(=O)C12)c1ccccc1 (stereo not drawn),64.5*,56.9*
COCc1cc(N2CCN(Cc3ccc4c(c3)OCO4)CC2)nc(SCc2ccc(C(=O)NCC3CCCO3)o2)n1 (stereo not drawn),-2.1,3.3
C=c1cc(C)n(CC(=O)Nc2ccccc2)c(=O)c1=C1N=C(c2ccccc2)NO1,-5.1,-10.1
CCCc1nc(C)sc1C(=O)Nc1cccc2cccnc12,-11.2,-16.3
O=C(Nc1ccc(-c2nc3cc(Cl)ccc3o2)cc1)c1cccc(Br)c1,-5.0,-11.8
CC(=O)C(C(C)=O)=c1cc(Nc2cccc(C)c2)c2c(O)c3ccccc3c3onc1c23,-13.4,-21.5
O=CN1CCn2c3c(c4cc(C5CCCCC5)ccc42)CCCC31 (stereo not drawn),8.9,5.4
Cc1cc(C)n2cc(CSc3nnc4ccccn34)nc2n1,9.0,12.8
FC(F)(F)c1ccc(Cn2ccnc2CNCC2CCCO2)cc1 (stereo not drawn),-4.3,2.6
COc1ccc2nc(N(CCn3cccn3)C(=O)c3cccc(C)c3)sc2c1,-19.7,-23.6
CC(=O)c1ccc(NC(=O)CSc2nc3ccccc3[nH]2)cc1,-0.8,-1.2
COc1ccccc1NC(=O)Nc1sc(C)c(C)c1C#N,13.8,9.9
NS(=O)(=O)c1ccc(-c2cccc3cccnc23)s1,-5.7,-10.6
COc1ccc(-n2ccnc(SCc3ccc(C)cc3)c2=O)cc1,-2.6,-0.1
O=C(Cc1c[nH]c2ccccc12)n1ccccc1=NC1CCCCC1,1.6,-0.1
O=C(Nc1ccc2c(c1)CN(Cc1ccc3nsnc3c1)CC2)C1CCCO1 (stereo not drawn),5.0,1.2
COCc1cc(=O)[nH]c(Nc2nc(C)c3cc(OC)ccc3n2)n1,0.8,-1.6
O=C(NCCCN1CCOCC1)c1cnn2c1NC(c1cccs1)CC2C(F)(F)F (stereo not drawn),-15.7,-17.6
CC(C)S(=O)(=O)c1ccc(CC(=O)N2CCCCC2)cc1,9.3,6.5
CCC(C)N(Cc1cccnc1)C(=O)c1ccsc1 (stereo not drawn),5.3,6.0
CN(C(=O)Cc1ccccc1O)C(c1ccc(F)cc1)C1CC1 (stereo not drawn),-1.6,-2.2
CC1C(=O)N(c2ccc(Cl)c(Cl)c2)CCN1Cc1ccccc1 (stereo not drawn),-2.1,2.1
CCOC(=O)c1cnc2cc(C(F)(F)F)ccc2c1Nc1ccc(C(C)=O)cc1,5.5,6.8
CCCCNC(=O)CC(c1ccc(Cl)cc1)c1cn(CC)c2ccccc12 (stereo not drawn),5.2,15.3
COc1ccc(CCN(C)C(=S)Nc2cccc(C(F)(F)F)c2)cc1OC,-8.1,-14.0
Cc1ccccc1-c1nc(OCC(C)C)nn1-c1ccc(NC(=O)c2ccc(Br)cc2)cc1,18.1,17.8
C1=CCN(c2nc(-c3cc4ccccc4o3)nc3ccccc23)CC1,-2.7,4.0
COC(=O)C1CCN(C(c2ccc(C)cc2)C2Sc3nc(-c4ccco4)nn3C2=O)CC1 (stereo not drawn),0.2,-0.9
COCCCNC(=O)c1cc(NC(=O)COc2ccc(Cl)cc2)ccc1N1CCN(c2ccccc2OC)CC1,10.0,18.9
Cc1cccc(COC2CCCN(C(=O)c3ccco3)C2)c1 (stereo not drawn),9.4,11.0
Cc1cnc(C(=O)Nc2cc(C(F)(F)F)ccc2N(C)C)cn1,10.2,6.1
CC(C)(C)c1cc(NC(=O)c2ccc(F)cc2Cl)n(-c2cccc(F)c2)n1,15.7,0.5
Cc1cc(C)c(C#N)c(SCC(=O)NC(C)c2ccc3c(c2)OCCO3)n1 (stereo not drawn),0.7,-0.8
O=C(/C=C/c1cn(S(=O)(=O)c2cccc3ccccc23)c2ccccc12)NCCCN1CCOCC1,-7.0,-9.9
CCCC(C)NC(=O)CSc1nc2ccccc2c(=O)n1CC (stereo not drawn),-4.5,-12.6
Nc1nc(SCC(=O)N(CCO)CCO)nc2sc3c(c12)CCCC3,-0.9,-1.8
FC(F)(F)C1CCCn2c(CNCc3cccc4[nH]ccc34)nnc21 (stereo not drawn),0.4,-1.0
CN1CCCC2(CCN(C(=O)c3ccc(-n4ccnc4)cc3)C2)C1=O (stereo not drawn),-3.1,-8.9
CC(c1nncn1C(C)C)n1cc(CCc2ccccc2)nn1 (stereo not drawn),14.5,11.6
Cc1nc(COc2ccc(C3NC(=O)c4cccnc4N3)cc2)cs1 (stereo not drawn),8.7,6.2
CC(C)Cc1nc(CN(C)Cc2ncc[nH]2)no1,30.5,21.2
Cc1cccc(C(=O)Nc2nc(C)c(Br)cc2Br)n1,-7.9,-6.4
Cc1ccc(Cl)cc1NC(=O)COC(=O)c1ccccc1C(F)(F)F,10.2,0.2
N#Cc1ccccc1Sc1ccccc1C(=O)OCC(=O)N1CCCC1,5.9,4.7
CN(C)CCCN(C(=O)COc1ccccc1)c1nc2cc3c(cc2s1)OCO3,1.1,-0.7
COCCCNC(=O)c1ccc(CSc2nc(Cl)cc(N3CCN(C/C=C/c4ccccc4)CC3)n2)cc1,-1.6,6.1
CCCCN(C)c1c(CC)nc2ccc(C(=O)NCc3ccc(N(C)C)cc3)cn12,0.9,-10.0
CCc1nc2n(n1)C(=O)C(C(c1cccc(F)c1)N1CCOCC1)S2 (stereo not drawn),-4.0,-10.7
CCOc1ccc(-c2nc(CN(Cc3ccccc3)Cc3scnc3C)c(C)o2)cc1,1.4,0.8
CCOC(=O)C1CCCN(CC(=O)N2N=C(c3ccccc3)CC2c2ccc(C)cc2)C1 (stereo not drawn),-5.4,6.7
Cc1ccc(OS(=O)(=O)c2cccc(C(F)(F)F)c2)c(-c2nc3cc(Cl)ccc3o2)c1,3.0,19.3
COC(=O)CCC(=O)N1CCCC(C(=O)c2ccc3cc(OC)ccc3c2)C1 (stereo not drawn),-3.7,-3.9
CCCC(=O)N1CCC1(C)C(=O)NS(=O)(=O)c1cccs1 (stereo not drawn),-0.2,-0.7
Cc1cc(Cl)c2oc(C(=O)N(Cc3c(C)nn(C)c3C)C3CC3)c(C)c2c1,10.0,2.9
CC(C)(C)CNC(=O)c1ccc(C(=O)NCC#N)cc1,-9.4,-9.0
O=C(Sc1nccc(=O)[nH]1)c1ccc(Cl)cc1,-23.7,-23.0
COc1ccc(S(=O)(=O)N2CCCC(C(=O)NCC(=O)NC(C)C)C2)cc1 (stereo not drawn),10.2,6.0

3 structures from above, arranged by heavy-atom count, rising.
SMILES,NPYLR7 ag,NPYLR7 ag max-min
COCc1cc(=O)[nH]c(Nc2nc(C)c3cc(OC)ccc3n2)n1,0.8,-1.6
CCCCNC(=O)CC(c1ccc(Cl)cc1)c1cn(CC)c2ccccc12 (stereo not drawn),5.2,15.3
CN(C)CCCN(C(=O)COc1ccccc1)c1nc2cc3c(cc2s1)OCO3,1.1,-0.7

Next entries:
canonical_smiles	NPYLR7 ag	NPYLR7 ag max-min
CCOc1ccc(OCC(=O)Nn2cnc3c(cnn3-c3ccc(C)c(C)c3)c2=O)cc1	-0.6	-2.6
CC(C)CC(NC(=O)C(C)N1C(=O)c2ccccc2C1=O)c1cccs1 (stereo not drawn)	0.3	-0.8
Cc1sc2nc(C(C)OC(=O)C3CC3C)[nH]c(=O)c2c1C (stereo not drawn)	0.6	7.0
c1ccc(-c2nnc3ccc(N4CCCC4)nn23)cc1	11.4	12.3
O=C(NS(=O)(=O)C1CCCC1)c1ccc(F)c(F)c1	-1.4	-2.9
C=C(C)CN1CCC(NC(=O)Nc2ccc(N(C)C)nc2)CC1	-5.7	-6.8
CN(C)c1cc(N/N=C/c2ccccc2)nc(N(C)C)n1	4.5	-3.3
COc1ccc(-c2[nH]ncc2CN2CCC(Oc3cccnc3)CC2)c(OC)c1	1.7	-0.2
COc1ccccc1NS(=O)(=O)c1ccc(Cl)c(C(=O)Nc2ccccc2C)c1	-4.6	-4.6
Cc1ccc(N=Cc2nc(-c3cccc4ccccc34)oc2O)c(Br)c1	-2.9	-6.2

Brought forward from above: 2 entries, followed by the next part.
canonical_smiles	NPYLR7 ag	NPYLR7 ag max-min
COc1ccccc1NS(=O)(=O)c1ccc(Cl)c(C(=O)Nc2ccccc2C)c1	-4.6	-4.6
Cc1ccc(N=Cc2nc(-c3cccc4ccccc34)oc2O)c(Br)c1	-2.9	-6.2
CC(c1ccccc1)N(Cc1cc(NC(=O)C2CCC2)ccc1N(C)C)C(=O)Cc1cccs1 (stereo not drawn)	0.2	-0.4
CCN(CCC(F)(F)F)C(=O)NCc1ccc(CS(C)(=O)=O)cc1	0.4	10.4
CSc1ccc(COc2coc(CN3CCCN(C(=O)C45CC[C@@](C)(C(=O)O4)C5(C)C)CC3)cc2=O)cc1	26.7	15.7
CCCCCCCC(=O)Nc1c(-c2ccc(C)cc2)nc2cc(C)ccn12	-3.7	2.6
CC(C)(C)c1ccc(OCCSc2nc3ccccc3n2CC(=O)O)cc1	-7.9	-14.3
c1ccc(CCc2noc(CN3CCOCC3)n2)cc1	16.4	3.9
Cc1cccc(N2CCN(CCCNc3cnn(C)c(=O)c3Cl)CC2)c1	-9.4	-8.5
COc1ccccc1CNC(=O)C(=O)Nc1cc2c3c(c1)C(C)C(=O)N3CCC2 (stereo not drawn)	5.2	3.9
O=C1c2cccc3c(Cl)ccc(c23)C(=O)N1CCO	-0.3	-5.5
Cc1ccc2c(c1)C1(SC(C)(C)CN1C(=O)c1cccc(Cl)c1)C(=O)N2Cc1ccc(F)cc1 (stereo not drawn)	-0.4	2.4
Cc1ccccc1C(O)CNC(=O)NCc1sccc1C (stereo not drawn)	-3.7	-2.8
CSCC(=O)N(CCN1CCCCC1)CC1CCCN(C2CCCC2)C1 (stereo not drawn)	-1.0	-2.5
CC(C)(C)c1ccc(CCC(=O)N2CCN(C(=O)c3ccc(O)cc3)CC2)cc1	9.5	2.3
CC1CCC2(CC1)NC(=O)N(CC(=O)NCCN1C(=O)SC(=Cc3ccccc3)C1=O)C2=O (stereo not drawn)	4.0	1.0
COc1ccc(-c2nn(-c3cc(C)ccc3C)c(OC(C)=O)c2-c2ccc(N)cc2)c(OC)c1	35.3	33.5
CCN(CC)S(=O)(=O)c1ccc2c(c1)nc(SC(C)C(C)=O)n2C(C)C (stereo not drawn)	3.8	-0.4
CCCn1cc(C(=O)N2CCN(c3ccc(OC)cc3)CC2)c2nn(-c3ccccc3)c(=O)c-2c1	27.3	24.7
CCOC(=O)CC1C(=O)NCCN1C(=O)C=Cc1cc(Br)ccc1OC (stereo not drawn)	-8.3	-13.3
Cn1cc(C2CC2C(=O)NS(=O)(=O)c2cccc(C#N)c2)cn1 (stereo not drawn)	10.2	6.9
Cc1cnc(C(=O)N2CCC(c3cc(-c4ccccc4Cl)n[nH]3)CC2)cn1	2.4	1.5

Single records, as listed above. Order of screens: NPYLR7 ag | NPYLR7 ag max-min
`CC(C)(C)c1ccc(CCC(=O)N2CCN(C(=O)c3ccc(O)cc3)CC2)cc1` in the list: 9.5 | 2.3
`CCOC(=O)CC1C(=O)NCCN1C(=O)C=Cc1cc(Br)ccc1OC` (stereo not drawn) in the list: -8.3 | -13.3
`CSCC(=O)N(CCN1CCCCC1)CC1CCCN(C2CCCC2)C1` (stereo not drawn) in the list: -1.0 | -2.5
`COc1ccc(-c2nn(-c3cc(C)ccc3C)c(OC(C)=O)c2-c2ccc(N)cc2)c(OC)c1` in the list: 35.3 | 33.5
`CCN(CC)S(=O)(=O)c1ccc2c(c1)nc(SC(C)C(C)=O)n2C(C)C` (stereo not drawn) in the list: 3.8 | -0.4

Next part:
canonical_smiles	NPYLR7 ag	NPYLR7 ag max-min
O=C(c1cn(CCN2CCOCC2)nn1)N1CCCCC1c1ccccn1 (stereo not drawn)	2.4	3.2
Cc1ccc(S(=O)(=O)N2CCN(Cn3ncsc3=S)CC2)cc1C	4.0	2.7
Cc1nnsc1CNC(=O)CSCc1ccccc1Cl	20.1	7.9
CC1CCCN(Cc2nc3c(c(=O)n(C)c(=O)n3C)n2Cc2c(F)cccc2Cl)C1 (stereo not drawn)	4.0	-1.6
CCc1cc(C(C)NC(=O)c2ccc(-n3cnnc3)cc2)on1 (stereo not drawn)	15.2	6.8
COc1ccc(S(=O)(=O)NCCNc2ccc(Nc3ccncc3)nn2)cc1	11.7	3.0
c1ccc2sc(N3CCCN(c4ncnc5c4CCNC5)CC3)nc2c1	-1.7	-3.7
COc1ccc(CN(CCN2CCOCC2)CC(O)COCc2ccco2)cc1 (stereo not drawn)	-3.9	-0.2
CSc1ccccc1NC(=O)c1c(Br)cnn1C	-10.3	-17.0
O=C(Cc1ccc2c(c1)OCO2)N1CCCC(CO)(CCOc2ccccc2)C1 (stereo not drawn)	5.8	3.8
O=C(c1cccc(F)c1)N1CCSC1c1cccc(Cl)c1 (stereo not drawn)	-7.1	2.3
COCCCn1ccnc1-c1cccc2ccccc12	2.3	1.1
CCCOc1ccc2c(c1)OCC(C(=O)NC(C)Cn1ccnc1)=C2 (stereo not drawn)	0.5	14.7
O=c1[nH]nnn1-c1ccccc1Cl	6.0	7.3
COC(=O)Cn1cc(NC(=O)Cc2ccc(Br)cc2)cn1	-5.1	-6.4
CCn1nnc2c(SCC(=O)N3CCCCCC3)ncnc21	1.4	0.8
FC(F)(F)c1cc(Nc2ncnc3sccc23)ccc1Br	-3.0	-1.7
COc1cccc2sc(N(Cc3cccnc3)C(=O)CCS(=O)(=O)c3ccccc3)nc12	-6.6	-3.8
